# Screens as filed in PubChem.
# KCNQ2 pot = enhances the rat KCNQ2 potassium channel; O88943; CHO-K1 KCNQ2, FluxOR thallium flux fluorescence; active compounds read high; AID 2239; B-score at 10 µM; actives 0.54% (n = 310,000);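 active = fluorescence ratio B-score at least 3 SD of library B-scores, with initial fluorescence B-score within 3 SD, cut at about 5.3 in these data; same plate scores as AID 2156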;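 note: B-score of peak minus minimum over baseline fluorescence ratio after K+ and Tl+ stimulus; positive B-score means potentiation of KCNQ2 with more thallium influx and brighter signal; only the inactives scoring about 0 or higher are listed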
# Target sequence (O88943 whole entry, looked up): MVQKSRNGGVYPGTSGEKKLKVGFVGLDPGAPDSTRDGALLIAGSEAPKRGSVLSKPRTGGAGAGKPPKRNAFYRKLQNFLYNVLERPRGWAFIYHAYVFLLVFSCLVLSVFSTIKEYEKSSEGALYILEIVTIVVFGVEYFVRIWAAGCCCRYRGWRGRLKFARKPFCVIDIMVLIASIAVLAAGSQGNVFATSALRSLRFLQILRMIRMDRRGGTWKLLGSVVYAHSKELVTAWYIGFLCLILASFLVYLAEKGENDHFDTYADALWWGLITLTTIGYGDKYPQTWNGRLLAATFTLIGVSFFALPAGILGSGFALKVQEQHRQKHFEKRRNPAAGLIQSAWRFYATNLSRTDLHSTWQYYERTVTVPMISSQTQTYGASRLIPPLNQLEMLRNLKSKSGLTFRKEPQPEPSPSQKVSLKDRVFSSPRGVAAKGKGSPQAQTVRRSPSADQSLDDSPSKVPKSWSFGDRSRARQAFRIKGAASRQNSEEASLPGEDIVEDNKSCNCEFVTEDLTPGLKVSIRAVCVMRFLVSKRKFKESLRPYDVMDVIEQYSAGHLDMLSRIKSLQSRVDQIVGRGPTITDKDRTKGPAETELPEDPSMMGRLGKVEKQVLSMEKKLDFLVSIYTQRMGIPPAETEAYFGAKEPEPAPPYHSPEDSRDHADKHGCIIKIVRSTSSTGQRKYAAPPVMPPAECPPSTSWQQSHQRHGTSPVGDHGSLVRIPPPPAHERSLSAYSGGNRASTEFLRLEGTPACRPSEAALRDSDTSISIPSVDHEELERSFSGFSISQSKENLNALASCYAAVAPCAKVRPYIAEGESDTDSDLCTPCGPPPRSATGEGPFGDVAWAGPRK
# KCNQ2 pot baseline = recorded beside KCNQ2 pot, whose call it bears; B-score; compound at 10 µM; measured here: initial fluorescence intensity artifact check;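 brightness before thallium and not channel activity; 0 = typical well and far values either way flag optical interference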
# * = called active by the depositor; . = not tested or not shown. An excerpt (hit frequency here may not be typical).
SMILES | KCNQ2 pot | KCNQ2 pot baseline
C#CCOCCOCCOCCNc1nc(N2CCN(C(=O)[C@H](CCCCN)n3cc(C(N)CC(C)C)nn3)CC2)nc(N2CCN(C(=O)[C@H](CCC(=O)O)n3cc(C(N)[C@H](C)CC)nn3)CC2)n1 (stereo not given in full) | 0.46 | 2.3
O=C1CC(N2CCN(c3cccc(C(F)(F)F)c3)CC2)C(=O)N1c1ccc(F)cc1 (stereo not given) | 0.86 | 0.09
CN(CCC#N)c1ccc(/C=C(\C#N)c2ccccn2)cc1 | 0.62 | -0.12
O=C(Nc1ccc(F)cc1)C(Sc1nnc2ccccn12)c1ccccc1 (stereo not given) | 0.25 | -0.67
CCc1ccc(C(=O)OCC(=O)c2c(N)n(CC(C)C)c(=O)n(C)c2=O)cc1 | 1.1 | 1
CC(C)[C@H](NS(=O)(=O)c1cccc(C(F)(F)F)c1)C(=O)OCC(N)=O | 2.8 | -1.6
C[C@H](N)C(=O)OCc1ccc([N+](=O)[O-])cc1 | 0.11 | 0
CCOC(=O)C1=C(c2ccccc2)NC(=O)NC1c1ccc(O)c(Cl)c1 (stereo not given) | 3.2 | -3.5
N#CC(=C=[N-])c1nc2ccccc2nc1-[n+]1ccccc1 | 0.02 | .
CN(C)CCNc1oc(-c2ccccc2F)nc1C#N | 0.94 | -3.1
CC(C)Cn1c2ccccc2c2cc(C(=O)O)ccc21 | 1.9 | 0.95
CCCCN(C)C(=S)Nc1ccc2nc(N3CCN(CC)CC3)cc(C)c2c1 | 0.02 | 3.6
CC(=O)Nc1cccc(CCc2nc3ccccc3[nH]2)c1 | 1 | 0.05
COC(=O)c1ccc(-c2csc(NC(=O)C3=COCCO3)n2)cc1 | 1.4 | 0.13
COc1cc(NC(=O)Nc2cccc(Cl)c2)c(C(=O)O)cc1OC | 0.45 | -2.8
COc1ccc(OCC(O)Cn2c(N3CCCCC3)nc3c2c(=O)[nH]c(=O)n3C)cc1 (stereo not given) | 0.91 | 0.75
Cc1ccc(-c2c3c(=O)n(C)c(=O)n(C)c3cn2CCCN2CCOCC2)cc1 | 0.76 | 0.04
Cc1cc(C(=O)CSc2nncs2)c(C)n1-c1ccc2c(c1)OCO2 | 0.86 | -2.9
O=C(O)c1c2c(nc3ccccc13)/C(=C/c1ccc(OC(F)F)cc1)CCC2 | 0.52 | 0.79
CCC1SC(C)C/C(=N/NC(N)=O)C1C (stereo not given) | 3.1 | -2.4
C/C(Cn1nnc([N+](=O)[O-])n1)=N\NC(=O)c1ccccc1 | 2 | -0.09
FC(F)(F)c1nc(SCc2ccccc2)n[nH]1 | 0.38 | 0.3
C=CCNC(=O)N[C@@H](Cc1ccccc1)C(=O)OC | 0.59 | 0.51
CCN(CC)S(=O)(=O)c1ccc(OC)c(NC(=O)COc2ccccc2[N+](=O)[O-])c1 | 1.1 | 0.28
O=C1CN(C(=O)COc2ncnc3ccccc23)c2ccccc2N1 | 0.92 | -0.8
COc1cc(NC(=O)C/C(C)=N/NC(=O)c2cccs2)c(OC)cc1Cl | 0.91 | -0.18
O=S(=O)(Nc1ccccn1)c1cc(Cl)ccc1Cl | 0.98 | -0.92
c1ccc2cc(OCCN3CCCC3)ccc2c1 | 0.38 | 3.2
Oc1ccc(/C=N/Nc2ncc(Br)cn2)c(O)c1 | 0.69 | -0.03
COc1ccccc1NC(=O)Cc1nn(C)c(=O)c2ccccc12 | 0.58 | 0.31

SMILES | KCNQ2 pot | KCNQ2 pot baseline
Fc1ccc(-c2nnc(Cc3nnc(-c4ccc(F)cc4)o3)o2)cc1 | 0.21 | -0.81
CC(=O)N1CCC(c2c[nH]c3ccccc23)CC1 | 0.47 | -0.02
CC(=O)Nc1ccc(S(=O)(=O)N(C)CC(=O)OC(C)C(=O)NC2CCCC2)cc1 (stereo not given) | 0.53 | 0.42
COc1ccc(NC(=O)CN(C)C(=O)c2cccc3ccccc23)cc1 | 0.11 | 0.05
Cc1cc(C)nc(CCNC(=O)c2cc(COc3c(C)cccc3C)on2)n1 | 0.21 | 0.67
Cc1cc([N+](=O)[O-])cc(/C=N\NC(=O)C2COc3ccccc3O2)c1O (stereo not given) | 4.9 | -2.3
CCN(Cc1ccncc1)Cc1ccc(OC)cc1OC | 1.7 | -1.8
Cc1ccc2c(c1)NCCO2 | 1.2 | -0.2
Cc1cc(C)cc(NC(=O)c2cc(C)nn2C)c1 | 0.8 | -0.04
CCOc1ccc2nnnn2n1 | 0.62 | 3.5
COc1cccc(C(=O)OCc2ccccc2C#N)c1O | 0.21 | 1.6
Cc1ccc(CNC(=O)C2CN(S(C)(=O)=O)c3cc(Cl)ccc3O2)cc1 (stereo not given) | 0.03 | 0.08
Cc1ccc(NC(=O)CSc2nc3c(c(=O)[nH]2)CCC3)c(C)c1 | 0.29 | 0.85
Cc1nonc1CC(=O)N1CCCC(C(=O)c2cccc(C(F)(F)F)c2)C1 (stereo not given) | 0.25 | 0.18
COc1cc2cc(CN(CCc3ccccc3C)C(=S)NCCCN(C)C)c(=O)[nH]c2cc1OC | 0.39 | -1.4
CN(C(=O)c1cccc(C#N)c1)c1nnc(-c2ccccn2)s1 | 0.27 | 1.3
C=CCOc1c(Br)cc(CNc2nccs2)cc1OC | 0.05 | -1.2
Cc1ccc(Cl)cc1N1CCN(CC(O)COCc2ccco2)CC1 (stereo not given) | 1.9 | 0.61
COc1ccc(/C=N/N(C)C2=NCCN2)c(OC)c1OC | 0.05 | 0.13
COc1ccc(NC(=S)NCC2CCCO2)c(OC)c1 (stereo not given) | 0.03 | 1.5
CCOC(=O)CN1N=C(/C=C/c2ccc(OC)cc2)CCC1=O | 0.7 | 1
COc1cccc(C(C(=O)NC2CCCC2)N(Cc2ccccc2OC)C(=O)c2ccco2)c1 (stereo not given) | 0.08 | -0.92
CC/S(C)=N/S(=O)(=O)c1ccc(C)cc1 (stereo not given) | 0.89 | 0.01
CCCOc1ccc(C2C(=O)N(C3CCCCC3)CC(=O)N2C2CC2)cc1OC (stereo not given) | 0.86 | -2
O=C(N/N=C/c1cc(Br)ccc1O)c1ccncc1 | 0.73 | -2
CCn1cc(-c2cc(C(=O)O)c3ccccc3n2)cn1 | 1 | 1.5
CCN(CCCNC(=O)CCn1c(=S)[nH]c2cc3c(cc2c1=O)OCO3)c1cccc(C)c1 | 0.93 | -0.7
CCCC(=O)Nc1nc2c(C)c(Cl)ccc2s1 | 0.89 | -0.86
CCC(CC)NC(=O)Nc1ccc(F)c(Cl)c1 | 2.3 | 0.11
Cc1ccc(F)cc1NC(=O)CN1CCN(c2ccccn2)CC1 | 0.06 | -0.01

# A draw from above in order of SMILES length, smallest number first.
SMILES | KCNQ2 pot | KCNQ2 pot baseline
Cc1ccc(F)cc1NC(=O)CN1CCN(c2ccccn2)CC1 | 0.06 | -0.01
COc1cccc(C(C(=O)NC2CCCC2)N(Cc2ccccc2OC)C(=O)c2ccco2)c1 (stereo not given) | 0.08 | -0.92
CCN(CCCNC(=O)CCn1c(=S)[nH]c2cc3c(cc2c1=O)OCO3)c1cccc(C)c1 | 0.93 | -0.7

# (next part)
SMILES | KCNQ2 pot | KCNQ2 pot baseline
CC1CCN(c2c(NCC3CCC(C(=O)NCCC4=CCCCC4)CC3)c(=O)c2=O)CC1 (stereo not given) | 0.98 | 0.85
COc1ccc(C(=O)C2CCCN(C(=O)COc3ccc(C(C)=O)cc3)C2)cc1F (stereo not given) | 1.6 | -0.23
Cc1ccc(NC(=S)N(CCN(C)C)Cc2cccs2)cc1C | 0.8 | -0.1
COc1ccc(NC(=O)CS(=O)(=O)c2cn(CC(=O)N3CCCC3)c3ccccc23)c(OC)c1 | 1 | -0.89
CCc1ccc(CNCc2ccc(OCC(O)CN(C)Cc3ccccc3)cc2)nc1 (stereo not given) | 0.11 | -1.9
C=CCN1C(=O)/C(=c2\sc3nc(=O)c(Cc4ccc(OC)c(OC)c4)nn3c2=O)c2ccccc21 | 0.21 | -0.41
C/C(CCc1ccco1)=N\NC(=O)CNc1c(Br)cc(Br)cc1Br | 0.25 | -0.25
Cc1[nH]c2ccccc2c1SCC(=O)N1CCC(C)CC1 | 2.2 | -1.7
C[n+]1ccccc1/C=C/c1ccc([N+](=O)[O-])cc1 | 0.5 | -0.64
CCOC(=O)N1CCc2c(sc3[nH]c(=S)[nH]c(=S)c23)C1 | 0.52 | 0.04
COc1ccc(/C=N/O)cc1COc1ccc(NC(C)=O)cc1 | 1.4 | 0.23
O=C(N/N=C/c1c[nH]c2ccccc12)c1cccc(O)c1 | 0.43 | 0.62
O=C(O)c1cccc(NS(=O)(=O)c2ccc(C3CCCCC3)cc2)c1 | 0.42 | -0.92
O=C(CN1C(=O)NC2(CCCCCC2)C1=O)c1ccc(F)cc1 | 0.37 | 2.3
CC(C)CNC(=O)CN1C(=O)NC2(CCc3ccccc32)C1=O (stereo not given) | 0.36 | 1.7
CCSc1nnc(NC(=O)c2cccc3ccccc23)s1 | 0.48 | 1.2
Cc1c(NC(=O)COC(=O)C2CC3C=CC2C3)c(=O)n(-c2ccccc2)n1C (stereo not given) | 1.4 | -0.13
CCc1ccccc1N(CC(=O)NCC1CCCO1)C(=O)CCC(=O)Nc1cc(C)on1 (stereo not given) | 0.76 | 0.48
CCOC(=O)C1CCN(C(=O)c2cc3c(OC)c(OC)c(OC)cc3[nH]2)CC1 | 1.6 | 0.01
O=C(CSc1ccccn1)Nc1ccccc1F | 0.28 | 1.7
O=C(NC1CCCCC1)C(Cc1ccccc1)N1C(=O)C2C3CCC(C3)C2C1=O (stereo not given) | 1.4 | -1.8
O=C(CCN1C(=O)COc2ccccc21)N1CCN(c2ccccn2)CC1 | 1.8 | -1.8
O=C(NCc1ccoc1)c1ccc(NC(=O)c2ccccc2Cl)cc1 | 1.1 | -0.67
O=C(NCCCN1CCCC1=O)c1ccc2c(c1)OCO2 | 0.84 | 0.64
CC(=O)Nc1ccc(NC(=S)NC(=O)/C=C/c2ccco2)cc1 | 1.1 | 0.13
Cc1cccc(-n2c(N)cc(=O)nc2SCC(=O)NC2CCCCC2)c1 | 1.3 | -0.6
CC(C)CCNC(=O)CNC(=S)N(Cc1ccccc1)Cc1cccnc1 | 0.27 | 0.52
N#C/C(=C(/O)c1ccco1)c1nc2ccccc2s1 | 0.55 | .
COc1c(C)cc(C(=O)C2CCCN(C(=O)CCCn3cncn3)C2)cc1C (stereo not given) | 0.55 | -0.51
CC(=O)c1ccc(NC(=O)CSc2nc(C3CC3)nc3ccccc23)cc1 | 1.1 | -2.2

# The list goes on; the last two above are carried over.
SMILES | KCNQ2 pot | KCNQ2 pot baseline
COc1c(C)cc(C(=O)C2CCCN(C(=O)CCCn3cncn3)C2)cc1C (stereo not given) | 0.55 | -0.51
CC(=O)c1ccc(NC(=O)CSc2nc(C3CC3)nc3ccccc23)cc1 | 1.1 | -2.2
Cc1nc([N+](=O)[O-])c(C(=O)OCc2ccccc2)n1C | 0.33 | -0.08
CC(NC(=O)c1cc([N+](=O)[O-])cc([N+](=O)[O-])c1)C1CC2CCC1C2 (stereo not given) | 0.13 | -0.83
COC(=O)c1[nH]c2cc(OC)ccc2c1NC(=O)CCN1CCCC(C)(C)C1 | 1.1 | 0.85
CCCc1cc(C(=O)O)c2ccccc2n1 | 0.03 | 0.85
Nn1cc(-c2ccccc2)nc1SCC(=O)NC1CCS(=O)(=O)C1 (stereo not given) | 0.24 | 1.7
COc1ccc(CCNC(=O)c2nnn(-c3cc(C)cc(C)c3)c2N)cc1OC | 0.84 | 0.4
O=C(CCC(=O)Nc1cccc(C(F)(F)F)c1)NCC1CCCO1 (stereo not given) | 0.41 | 0.89
Cc1[nH]c2ccccc2c1C(=O)NS(=O)(=O)Nc1ccc(Cl)cc1 | 0.12 | 0.16
c1ccc(COc2ccc(OCCN3CCCCC3)cc2)cc1 | 0.97 | 1.2
Cc1ccc(NC(=O)CCc2c(C)nc3ncnn3c2C)nc1 | 0.53 | -0.18
CCN(CC)S(=O)(=O)c1ccc(OC)c(NC(=O)Cc2cccs2)c1 | 0.68 | -0.52
O=C(CNC(=S)N(Cc1ccccc1Cl)C1CCCC1)NCCCN1CCOCC1 | 0.04 | -0.06
Cc1cc(N2CCOCC2)nc2ccc(NC(=O)CCC(=O)N3CCN(c4ccccc4F)CC3)cc12 | 0.54 | -0.11
COc1ccccc1C(=O)NNC(=S)NC(=O)c1sc2ccccc2c1Cl | 16* | 0.67*
O=C1C2C3C=CC(C2C(=O)N1CCCO)C1C2C(=O)N(CCCO)C(=O)C2C31 (stereo not given) | 2 | -1.4
CC1CCCCN1S(=O)(=O)c1cccc2nonc12 (stereo not given) | 0.13 | -0.93
Cn1c(=O)n(C)c2cc([N+](=O)[O-])c(N3CCN(C(=O)C(C)(C)C)CC3)cc21 | 0.03 | -0.61
COc1ccccc1N1CCN(C2CCCN(C(=O)CCN3CCCCO3)C2)CC1 (stereo not given) | 0.16 | 1.4
COCc1[nH][nH]c(=O)c1C=Nc1ccc(OC(F)(F)F)cc1 | 0.18 | -0.07
CCn1c(Cc2ccccc2)nnc1SCC(=O)Nc1ccccc1N1CCOCC1 | 0.59 | -1.8
CC(=O)c1cccc(NS(=O)(=O)c2ccc(N/C=C\C(=O)c3ccc(F)cc3)cc2)c1 | 0.09 | 0.5
CCOC(=O)c1c(CN(CC)CC)n(C)c2cc(Br)c(O)cc12 | 0.44 | -1.9
Cc1ccc(OCCCC(=O)NCc2ccco2)cc1 | 0.04 | 0.77
CC(C)N(C(C)C)S(=O)(=O)c1ccc(NC(=O)c2cnccn2)cc1 | 0.2 | -1.8
CC(C)(C)CN1C(N)=NC[C@H]1Cc1ccc(O)cc1 | 2.1 | -0.23
O=C(Nc1cccc2c1CCCC2)C1CCCN(S(=O)(=O)c2cccc3nonc23)C1 (stereo not given) | 0.07 | -0.39
COc1ccc(N2CCN(C(=O)C3CCN(S(=O)(=O)c4cccs4)CC3)CC2)cc1 | 0.69 | 0.76
COC(=O)N1CCN(c2ccc(C(C)=O)cc2)CC1 | 1.4 | 1.4
CNC(=O)c1[nH]cnc1C(=O)N[C@@H](CC(C)C)C(=O)OCc1ccccc1 | 0.01 | -0.16
CC[n+]1c(C)sc2cc(C)ccc21 | 1.1 | -1.1
